# VCAM-1 up = enhancers of VCAM-1 display on endothelial cells, cell-based, plate reader, pooled HUVEC, TNFa stimulus (AID 455); HUVEC TNFa-induced VCAM-1 immunofluorescence, plate reader; numbers were filed only for top-ranked candidate wells; augmentation, % at 5 µM; 10,000 compounds, 0.2% hits;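 active = a compound raising TNF-alpha-driven VCAM-1 surface staining, with its hit status upheld on visual or statistical review; inactive = the rest, including hits rejected on review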;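 note: 0% = TNFa with vehicle and 100% = strongest image-checked hit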
# 26S disassembly = inhibitors of ATP-driven 26S proteasome dissociation, primary screen, biochemical, bead-based flow cytometry, GFP-tagged proteasome; anti-FLAG beads, GFP-proteasome disassembly; inhibition of disassembly, % (concentration not given with the values); 24,000 compounds, 0.2% hits;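 active = above 40%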;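 note: plate controls were ATP control with full disassembly for no effect and ATP-gamma-S intact proteasomes for full effect; higher percent means more bead fluorescence retained so stronger block of disassembly; stock transfer was 100 nL into about 10 µL; wells with too few beads may also be inconclusive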
# An asterisk follows results filed as active; i = inactive; / = no result given. A portion of the library. The share of hits here may be higher or lower than overall.
# Values in the order – VCAM-1 up, 26S disassembly
- Cc1ccc2c(c1)c(C)c(C)n2CC(O)CN1CCCCC1C (configuration not stated)
→ /, 5.7
- CC1=C(C(=O)NCc2ccccc2)C(c2ccccc2OCC(N)=O)NC(=O)N1 (configuration not stated)
→ i, -1.8
- CCC(=O)N1CCc2cc(S(=O)(=O)NC(C(=O)NC(C)c3ccccc3)C(C)C)ccc21 (configuration not stated)
→ /, -0.8
- COc1cc(C(c2sc3nc(C)nn3c2O)N2CC(C)CC(C)C2)cc(OC)c1OC (configuration not stated)
→ i, -1.4
- CCOC(=O)c1cc(-c2ccccc2)sc1N
→ i, -2.6
- Cc1ccc(NC(=O)CSc2nnc(-c3cnccn3)n2Cc2ccco2)cc1C
→ i, -0.4
- O=C(CSc1ncnc2ccccc12)N1CCCC1
→ /, 0.4
- O=C(CSc1ncnc2c1nnn2-c1ccc(F)cc1)NCC1CCCO1 (configuration not stated)
→ /, -2.2
- CCN(CC)S(=O)(=O)c1ccc(F)c(C(=O)NCCC(C)C)c1
→ i, -1.4
- CCNc1c2c3c(cccc3n(C)c1=O)C(=O)c1ccccc1-2
→ /, 59*
- CCOC(=O)c1ccc(NC(=O)CS(=O)(=O)c2cn(CC)c3ccccc23)cc1
→ /, -1.6
- O=C1NC(NS(=O)(=O)c2ccccc2)(C(F)(F)F)C(=O)N1Cc1cccnc1 (configuration not stated)
→ /, 1.7
- O=C(CSc1nnc(-c2c[nH]c3ccccc23)o1)N(Cc1ccccc1)c1ccc(F)cc1
→ i, 0.1
- O=C(NC1CC1)c1ccc(CS(=O)(=O)c2c(Cl)cccc2Cl)o1
→ /, 0.7
- Cc1ccc(SCCC(=O)N(C)C)cc1
→ i, -0.4
- CCCCOC(=O)C1=C(C)Nc2ncnn2C1c1cccc(OC)c1 (configuration not stated)
→ /, 0.5
- CCOC(=O)C(NC(=O)N1CCCCC1)(c1ccccc1)C(F)(F)F (configuration not stated)
→ /, -1.4
- c1ccc(OCc2nc3ccccc3[nH]2)cc1
→ i, 1.3
- CCOC(=O)C1CCCN(C(=O)c2cn(CC)c(=O)c3cc(OC)c(OC)cc23)C1 (configuration not stated)
→ /, -2.0
- Cc1ccsc1C1NC(=O)c2c(sc3c2CCN(C)C3)N1 (configuration not stated)
→ /, 2.8
- COc1cc(C2C(C(=O)Nc3ccccc3OC)=C(C)Nc3ncnn32)ccc1O (configuration not stated)
→ /, -1.2
- COc1ccc(OC)c(NC(=O)CSc2nnc(CNC(=O)c3ccco3)o2)c1
→ /, -1.6
- COc1ccc(Nc2nc(Nc3ccc(OC)cc3)nc(-n3[nH]c(=O)c(C)c3C)n2)cc1
→ i, 8.7
- Cc1cc2cc(CN3C(=O)c4ccccc4C3=O)ccc2n1C
→ /, 0.5
- CCN(CCCNC(=O)C1CCN(S(=O)(=O)c2cnc[nH]2)CC1)c1cccc(C)c1
→ /, 1.4
- Cc1ccc(CNC(=O)CCS(=O)(=O)c2cc(Br)cc3c2N(C(=O)C2CC2)CC3)o1
→ /, 0.1
- O=C(NCCCN1CCN(c2ccccc2F)CC1)Nc1ccc(F)cc1
→ /, -1.4
- CCOC(=O)CC(=O)CSc1ccc2nnc(-c3ccccc3)n2n1
→ /, 0.7
- COc1ccc(NC(=O)C2C3C=CC4(CN(Cc5cccnc5)C(=O)C24)O3)c(OC)c1 (configuration not stated)
→ /, -1.0
- CCn1ncc(C2=NOC(C(=O)NCCc3ccccc3)C2)c1C (configuration not stated)
→ /, 1.9
- CN(CC(=O)NCc1ccc2c(c1)OCO2)S(=O)(=O)c1ccc(Br)s1
→ /, 2.6
- Clc1ccc(Cc2nnc(-c3cccs3)o2)cc1
→ /, -0.5
- CC(C)OCCCNC(=O)CNC(=O)c1cccs1
→ /, -1.4
- CC(=O)SCCC(=O)Nc1ccccc1
→ i, -1.4
- CCC(=O)Nc1nonc1-c1nc2ccccc2n1CCC(C)C
→ /, -0.3
- Cc1ccc(C2C3=C(CC(C)(C)CC3=O)Nc3[nH]c(=S)[nH]c(=O)c32)cc1 (configuration not stated)
→ /, 0.4
- CCOC(=O)CSc1nc(NCc2ccco2)c2ccccc2n1
→ /, 2.1
- COc1ccc(OC)c(-n2c(C)nc3cc(C(=O)O)ccc32)c1
→ /, -3.1
- NC(=O)CSc1nnc(-c2ccc(O)cc2)n1Cc1ccco1
→ i, -0.3
- CCC(=O)N1CCc2cc(Br)cc(S(=O)(=O)NCCN3CCOCC3)c21
→ /, -1.2

# Profiles from above.
# CCOC(=O)CSc1nc(NCc2ccco2)c2ccccc2n1 across the screens: VCAM-1 up = /; 26S disassembly = 2.1
# Clc1ccc(Cc2nnc(-c3cccs3)o2)cc1 across the screens: VCAM-1 up = /; 26S disassembly = -0.5

# Continued:
# Values in the order – VCAM-1 up, 26S disassembly
- CCSc1nc(O)c(CC)c(=O)n1C(C)CC (configuration not stated)
→ i, 0.1
- O=c1c2ccccc2c2ccccc2c(=O)n1Cc1cccnc1
→ /, -0.1
- O=C(c1csc2ccccc12)N1CCCCCC1
→ i, -0.7
- COc1ccccc1CNC(=O)C(NC(=O)C1CCCCC1)C(C)C (configuration not stated)
→ /, -0.7
- O=C1NC(c2ccncc2)Nc2sc3c(c21)CCCC3 (configuration not stated)
→ /, -0.9
- CCOC(=O)N1CCN(c2nc(N(c3ccccc3)c3ccccc3)nc(-n3ccnc3)n2)CC1
→ /, 0.9
- Cc1cc(-c2ccco2)n(CC(=O)O)n1
→ /, -3.0
- Cc1ccc(C(O)c2nc3ccccc3n2C(C)C)cc1 (configuration not stated)
→ i, 0.1
- O=C(NCc1cccnc1)c1noc2c1CCCCC2
→ /, -0.6
- COc1ccc(CCNC(=O)CCCn2c(SCC#N)nc3ccccc3c2=O)cc1OC
→ /, 1.4

# Look-ups from the list.
# Value of `CCN(CCCNC(=O)C1CCN(S(=O)(=O)c2cnc[nH]2)CC1)c1cccc(C)c1` under 26S disassembly: 1.4
# Value of `CC(C)OCCCNC(=O)CNC(=O)c1cccs1` under 26S disassembly: -1.4

# The list continues:
smiles,VCAM-1 up,26S disassembly
Cc1cc(/C=c2/sc3nc4ccccc4n3c2=O)c(C)n1-c1ccccn1,i,2.1
O=C(CNC(=O)c1cc2ccccc2o1)NCc1cccs1,i,0.8
Cc1nn(-c2ccc(F)cc2)c2sc(C(=O)N3CCCCCC3)cc12,i,2.2
CCOC(=O)c1ccccc1Nc1cc(C)nc2nc(C)nn12,/,-4.2
O=C1CC(c2ccc(F)c(Br)c2)C2=C(CCCC2=O)N1 (configuration not stated),i,-0.4
Cc1ccc(S(=O)(=O)NCCCCCC(=O)NC(C)(C)CO)cc1,/,-1.1
CCOC(=O)c1sc(Nc2nc3c(OC)cccc3s2)nc1C,i,-0.5
C=CCn1c(C(C)NC(=O)CCC)nc2ccccc21 (configuration not stated),/,1.6
Cc1ccc(-n2c3c(cc(C(=O)O)c2=O)C(=O)CC(C)(C)C3)cc1,i,1.8
CCSc1nc(O)c(C2OC(=O)c3c2ccc(OC)c3OC)c(=O)n1-c1ccccc1 (configuration not stated),i,-0.5
CS(=O)(=O)c1ccc2nc(N)sc2c1,/,1.2
COc1ccc(-c2cc(C(=O)NC(C)C)no2)cc1,/,-1.5
COc1ccc2cc3cc(C(=O)NCCCN4CCOCC4)oc3nc2c1,/,-0.6
CCCN(CCC)Cc1c(C(=O)OCC)nnn1-c1nonc1N,/,-2.4
CC(CCc1ccccc1)NCc1ccncc1 (configuration not stated),i,2.2
COc1ccc(S(=O)(=O)N2CCN(C)CC2)cc1C,/,-0.9
O=C(Cc1ccc(F)cc1)N(c1ccccc1)C1C=CS(=O)(=O)C1 (configuration not stated),/,-0.2
COc1cc(C(=O)NCCc2ccc3c(c2)OCCO3)ccc1OCC(=O)N1CCOCC1,i,2.9
O=C(Cn1ncc2c1-c1ccccc1OC2)Nc1ccc(S(=O)(=O)N2CCCCC2)cc1,/,0.0
CCOC(=O)c1[nH]c(C)c(C(=O)NCc2ccc(Cl)cc2)c1C,/,4.5
CCN1C(=O)c2cccc3c(NC(=O)c4ccc(S(=O)(=O)N(C)C)cc4)ccc1c23,i,1.0
CCOC(=O)/C(N=O)=C(\O)C1CCN(C(=O)OCC)CC1,/,1.5
CCOc1ccc2[nH]cc(C(=O)N3CCN(CC)CC3)c(=O)c2c1,i,0.8
CNC(=O)Oc1ccc2c(c1)[C@]1(C)CCN(C)[C@@H]1N2C,i,0.9
Cc1cccc(-c2nc(CN3CCCC(C(=O)NC4CCC(C)CC4)C3)c(C)o2)c1 (configuration not stated),/,2.5
CCS(=O)(=O)c1nc2ccccc2n1CC(=O)N1CCOCC1,i,-1.3
COc1ccc(N2CCN(CCCNS(=O)(=O)c3c(C)noc3/C=C/N(C)C)CC2)cc1,i,6.5
CCOC(=O)C1=C(C)NC(C)=C(C(=O)OC)C1c1cccc(Cl)c1Cl (configuration not stated),i,1.3
Cc1nc2ccccc2c2oc(C(=O)NC3CC3)cc12,/,-1.1
CCc1ccccc1NC(=O)c1ccc(F)c(S(=O)(=O)N2CCC(C(N)=O)CC2)c1,/,0.8
O=C(COc1ccc2c(c1)C(=O)CC1(CCCCC1)O2)NCc1ccccn1,/,0.8
CC(=O)N1CCN(c2ccc(N=Cc3c(O)n(Cc4ccccc4)c(=O)[nH]c3=O)cc2)CC1,i,4.0
Cc1ccccc1OCc1nnc(SCC(=O)NCc2ccccc2)n1C,i,-0.8
Cc1cccc(C)c1NC(=O)N1CC=C(n2c(=O)[nH]c3ccccc32)CC1,/,1.0
O=C1CC(CCC(=O)NC2CC2)c2ccccc2N1 (configuration not stated),/,-1.6
COc1ccc(CCNc2oc(-c3ccco3)nc2C#N)cc1,i,1.1
Cc1nn(Cc2ccccc2)c2c1C(c1ccncc1)C(C#N)=C(N)O2 (configuration not stated),i,-2.9
c1ccc(CN2CCN(c3nc(-c4ccccc4)nc(-n4ccnc4)n3)CC2)cc1,/,-0.4
CCOc1ccccc1Nc1ncnc2ccccc12,i,3.4
CC1(C)Cc2ccccc2C2CC(O)C(=O)N21 (configuration not stated),/,0.4
CCNCc1cc2cc(C)ccc2[nH]c1=O,i,2.2
CCCc1cc(C(=O)Nc2sc(C)c(CC)c2C#N)no1,/,-0.3
Cc1cc2cc(CNC(=O)C3CC3)ccc2n1C,/,-1.2
COc1cccc(NC(=O)C2CCCN(S(=O)(=O)c3cccc4cccnc34)C2)c1 (configuration not stated),i,1.0
CCCCNC(=O)CCCn1c(=O)[nH]c2ccc(Br)cc2c1=O,/,0.4
CC(C)Cn1c(N)c(C(=O)NCc2cccs2)c2nc3ccccc3nc21,i,1.6
FC(F)(F)c1cc(-c2ccccc2)nc(-n2cncn2)n1,/,2.8
Nc1nnnn1NCc1cccc(OCc2ccccc2)c1,i,0.0
CCOC(=O)C1CCN(Cc2ccc(F)c(Br)c2)CC1,i,-4.0
Cc1cc(C)n2nc(S(=O)(=O)N(C)c3ccccc3)nc2n1,i,-0.1
O=C(c1ccc(Cl)s1)N1CCN(c2nc3ccccc3s2)CC1,i,-1.0
Cc1noc(N)c1C(=O)Nc1ccc(F)cc1,/,1.2
O=C(Cc1nn[nH]n1)NCc1ccccc1Cl,/,2.4
CC1CCC(C(=O)NC(C(=O)N2CCN(c3ccccn3)CC2)C(C)C)CC1 (configuration not stated),/,-2.1
CC(=O)c1ccc(-c2nc3ccccc3n2C)o1,i,6.0
O=C(Nc1nc2ccccc2n1CCN1CCOCC1)c1cn(-c2ccccc2)nc1-c1ccccc1,/,0.9

# Continuation.
smiles,VCAM-1 up,26S disassembly
O=c1c2[nH]c3ccc(Cl)cc3c2ncn1Cc1ccccn1,100*,-0.6
Nc1nc(C2C(=O)CCCC2=O)cs1,i,1.2
CCCCC[C@H](O)/C=C/C1=C(CCCCCCC(=O)O)C(=O)CC1,i,-0.4
COc1ccc(N(CC(=O)Nc2ccc(C)c(C)c2)S(=O)(=O)c2c(C)n[nH]c2C)cc1,/,-1.6
COC(=O)c1cc2ccsc2n1CC(=O)Nc1ccc(N(C)C)cc1,/,-1.5
Cc1ccc(-n2ncc3c(=O)[nH]cnc32)c(C)c1,/,-2.5
CCOC(=O)c1nnn(-c2nonc2NC(C)=O)c1C,i,-0.7
Cc1csc(NC(=O)c2cnc3ccccn3c2=O)n1,/,-0.5
O=C(c1ccco1)N1CCN(c2nc3ccsc3c(=O)s2)CC1,/,0.3
Cc1ccc(C)c(/C(O)=C2\C(=O)C(=O)N(CCCN3CCOCC3)C2c2cccnc2)c1 (configuration not stated),i,-0.6
CCC(Sc1nccn1C)C(=O)Nc1nnc(C)s1 (configuration not stated),/,0.3
C/C(=C1/SC(N2CCCC2)=NC1=O)c1ccc(Br)cc1,/,-2.1
COc1ccc(-c2nc(C#N)c(NCCCN(C)C)o2)cc1OC,i,0.0
CCOC(=O)C1=C(C)Nc2nnnn2C1c1c[nH]c2ccccc12 (configuration not stated),i,0.6
O=C(NC1=NCCS1)Nc1ccccc1,/,-0.2
Cn1c(=O)[nH]c(=O)c2c1nc(N(CCO)Cc1ccccc1)n2Cc1ccccc1Cl,i,0.7
Cn1c(Cn2c(=O)sc3ccccc32)nnc1SCc1cccc(F)c1,/,-0.3
Cn1cccc1C(=O)NC(=O)CSc1nnc(C2CC2)n1-c1ccccc1,i,-4.8
Cc1ccc(CCNC(=O)C2CCN(S(=O)(=O)c3c(C)nn(C)c3C)CC2)cc1,i,-1.0

# Some of the entries so far, field by field:
O=C(c1ccco1)N1CCN(c2nc3ccsc3c(=O)s2)CC1
  VCAM-1 up: /	26S disassembly: 0.3
Cc1ccc(C)c(/C(O)=C2\C(=O)C(=O)N(CCCN3CCOCC3)C2c2cccnc2)c1 (configuration not stated)
  VCAM-1 up: i	26S disassembly: -0.6
CCC(Sc1nccn1C)C(=O)Nc1nnc(C)s1 (configuration not stated)
  VCAM-1 up: /	26S disassembly: 0.3
C/C(=C1/SC(N2CCCC2)=NC1=O)c1ccc(Br)cc1
  VCAM-1 up: /	26S disassembly: -2.1

# High-throughput results from PubChem.
